# Source: PubChem
# PINK1 modulator: changes PINK1 expression; PINK1 immunofluorescence, high-content cytometry, 24 h; Potency, µM (titrated, usually from 76.6 µM), without a hit: at the highest dose activation (PINK1 increase), most hits filed as activators; 410,000 compounds, 0.2% hits; active = well fitted activation curve with a large enough effect; inconclusive = small, poorly fitted or top-dose-only effect; inactive = flat fitted curve, though single readings scatter; cell line not stated here;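 also: potency is read from the fitted curve at half-maximal effect; % of control where 0% means no effect; nearly all actives have a fitted effect of over 65% in size; a mitochondrial uncoupler was the plate control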
#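 Stable cell line, 250 cells/well, 12 h attachment; compounds pinned at 5 concentrations, 24 h; CCCP control. Fixed with nuclear dye, primary antibodies 12 h at 10 degrees C, secondary plus cell stain; laser-scanning cytometer read.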
# TRPML1 ag: agonists of human TRPML1 channel; activation, % (no concentration beside the values); 410,000 compounds, 0.12% hits; TRPML1-expressing cells, Ca2+ dye fluorescence, FDSS; host cell line not named in the record; reference of the full effect not given here; Q9GZU1; in the data active = activation above about 50%; inconclusive = about 30% to 50%; inactive = below about 30%; also: 0% is about no effect; the text of the record puts the active cut at 80%
# Target sequence (Q9GZU1 whole entry, looked up): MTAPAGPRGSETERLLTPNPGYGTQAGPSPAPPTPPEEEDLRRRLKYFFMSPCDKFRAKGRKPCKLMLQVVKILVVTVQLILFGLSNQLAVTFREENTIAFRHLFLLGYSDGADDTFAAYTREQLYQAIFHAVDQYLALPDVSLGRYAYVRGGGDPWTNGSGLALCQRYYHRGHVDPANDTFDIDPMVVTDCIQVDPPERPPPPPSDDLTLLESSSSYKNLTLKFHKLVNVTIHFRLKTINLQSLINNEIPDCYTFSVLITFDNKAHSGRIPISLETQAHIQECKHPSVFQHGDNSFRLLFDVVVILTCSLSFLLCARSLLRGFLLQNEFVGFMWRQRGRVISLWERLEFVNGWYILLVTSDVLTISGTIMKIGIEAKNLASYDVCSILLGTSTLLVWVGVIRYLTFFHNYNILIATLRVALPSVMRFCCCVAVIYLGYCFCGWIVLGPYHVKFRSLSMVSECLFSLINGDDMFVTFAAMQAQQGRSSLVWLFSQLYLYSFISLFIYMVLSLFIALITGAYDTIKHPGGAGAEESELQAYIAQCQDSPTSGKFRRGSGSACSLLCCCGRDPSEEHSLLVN
#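 Calcium fluorescence on an FDSS kinetic reader gave the read-out. Tet-induced TRPML1-DL cells were plated overnight, dye-loaded (Ca8 with quencher, 45-90 min, room temperature, dark), then read 110 s after compound addition, and again 110 s after 4uM final 54-4 (EC80).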
# Starred values were filed as active, the others as inactive. Not all compounds are listed; rates above refer to the full screens.
# Start of the data: the first three compounds, ahead of the listing:
no.	smiles	PINK1 modulator	TRPML1 ag
1	N#Cc1c[nH]n2c(NC3CCCCC3)c(-c3ccccc3F)nc12	0.9%	-0.9
2	COCCCNC(=O)c1sc2nc(C)c(C(=O)Nc3ccc(Cl)cc3)c(-c3ccc(Br)cc3)c2c1N	9.8%	-0.4
3	CC1Cc2cc(S(=O)(=O)CCC(=O)Nc3cccc(F)c3)ccc2N1C(=O)C1CC1 (stereo not drawn)	8.6%	-0.1

# This part in full, from the first entry:
no.	smiles	PINK1 modulator	TRPML1 ag
1	N#Cc1c[nH]n2c(NC3CCCCC3)c(-c3ccccc3F)nc12	0.9%	-0.9
2	COCCCNC(=O)c1sc2nc(C)c(C(=O)Nc3ccc(Cl)cc3)c(-c3ccc(Br)cc3)c2c1N	9.8%	-0.4
3	CC1Cc2cc(S(=O)(=O)CCC(=O)Nc3cccc(F)c3)ccc2N1C(=O)C1CC1 (stereo not drawn)	8.6%	-0.1
4	Cc1ccc(C)c(NC(=O)CSc2nnc(NC(=O)Nc3ccccc3)s2)c1	2.7%	-0.6
5	CCOC(=O)CC(NC(=O)c1cc2cc(Br)cc(OC)c2oc1=O)c1ccc(OC)cc1 (stereo not drawn)	0.5%	2.3
6	COc1ccc(NC(=O)c2ccco2)cc1NC(=O)COc1cc(C)ccc1C(C)C	2.5%	-0.3
7	CCOc1ccc(-n2cc(-c3ccccc3)c3c(NCc4ccc(F)cc4)ncnc32)cc1	5.5%	2.6
8	Cc1c(C(=O)Nc2nc(-c3ccc(F)cc3)ns2)oc2ccc(Cl)cc12	2.6%	0.4
9	Cc1cccc(NC(=O)c2cc(CN3CCOCC3)on2)c1C	0.1%	0.6
10	CCC(=O)N1CCc2cc(CNS(=O)(=O)c3ccc(Br)s3)ccc21	-0.8%	-0.5
11	CCOC(=O)c1c(C)sc(-c2c(-c3ccc(OC)c(F)c3)[nH]c3[nH]c(=O)[nH]c(=O)c23)c1O	26.9%	3.1
12	COc1ccc(CN(Cc2ccco2)c2cnc(S(C)(=O)=O)nc2C(=O)Nc2ccc(F)cc2)cc1	-2.3%	2.2
13	O=S(=O)(c1ccc(Br)s1)N1CCN(c2cccc(C(F)(F)F)c2)CC1	1.0%	1.1
14	COC(=O)c1ccccc1NC(=O)CN(c1ccccc1OC)S(C)(=O)=O	-0.4%	-0.4
15	CCOC(=O)c1ccc(NC(=O)c2c(NC(C)=O)sc3c2CCC(C)C3)cc1 (stereo not drawn)	1.2%	-0.2
16	CC1CCc2nc3ncn(Cc4ccccc4C#N)c(=O)c3cc2C1 (stereo not drawn)	-0.1%	-0.7
17	CCOc1ccccc1CNC(=O)c1ccc2nc(Cc3ccc(OC)cc3)oc2c1	0.3%	-0.4
18	O=C(Nc1cccc(Br)c1)N1CCC(CN2CCCCC2)CC1	0.0%	-0.3
19	Cc1ccc(C(=O)NCC(c2ccc3c(c2)OCO3)N2CCN(c3ccc(F)cc3)CC2)cc1 (stereo not drawn)	-0.1%	1.1
20	COCCCNC(=O)C1CCN(c2ncnc3c2nc2n3CCCCC2)CC1	1.7%	0.4
21	Cc1nn(-c2cccc(Cl)c2)c2nc(-c3cccnc3)cc(C(F)(F)F)c12	-1.1%	-0.7
22	Cc1ccc(NC(=O)CN2C(=O)CC(c3ccc(C)c(C)c3)=Nc3ccccc32)cc1	0.4%	-0.1
23	Cc1ccc(-c2ccc(=O)n(CC(=O)Nc3cccc(C#N)c3)n2)cc1	0.0%	-0.8
24	Cc1ccc(S(=O)(=O)n2nc(C)c(S(=O)(=O)N3CCC(C)CC3)c2C)cc1	0.8%	-1.1
25	CCN1CCN(c2cc(C)c3cc(NC(=O)/C=C/c4cccc(OC)c4OC)ccc3n2)CC1	7.8%	2.0
26	Cc1ccc(C(=O)NCC(c2ccco2)S(=O)(=O)c2ccccc2)cc1C (stereo not drawn)	1.7%	-0.9
27	CCCCSc1nnc2c(n1)OC(c1ccc(Br)s1)N(C(C)=O)c1ccccc1-2 (stereo not drawn)	5.5%	1.1
28	O=c1c2ccccc2nc(N2CCN(c3cccc(Cl)c3)CC2)n1-c1ccccc1	1.8%	-0.7
29	Cc1ccc(S(=O)(=O)N2CCC(N3CCN(Cc4ccccc4)C(=O)C3=O)CC2)cc1C	0.6%	-1.0
30	CCc1ccc(S(=O)(=O)c2cn(CC(=O)Nc3cccc(C)c3)c3ccc(Cl)cc3c2=O)cc1	1.7%	-0.1
31	Cc1ccc(-c2nc(-c3cccs3)c(-c3cccs3)[nH]2)cc1	4.7%	1.4
32	O=S(=O)(NCCc1ccccc1)c1ccc(N2CCCCS2(=O)=O)cc1	0.7%	-0.5
33	CCOc1ccc(-c2nc(SCC(=O)c3ccccc3)n[nH]2)cc1	0.7%	1.2
34	CCN(CC)CCNC(=O)c1ccc2c(=O)n3nc(Nc4ccccc4)sc3nc2c1	0.1%	0.7
35	COc1ccccc1-c1nnc(C2CCN(C(=O)c3ccccc3C)CC2)o1	1.6%	-0.7
36	Cc1cccc(N2CCN(C(=O)C3CCC(CNS(=O)(=O)c4ccc(Br)s4)CC3)CC2)c1C (stereo not drawn)	4.2%	1.3
37	NC(=O)Cn1c(=O)n(CCCCCC(=O)NCc2ccccc2Cl)c(=O)c2sccc21	-0.7%	0.1
38	O=C(NCC(c1ccc(Cl)cc1)N1CCOCC1)c1ccccc1F (stereo not drawn)	1.5%	0.5
39	CCOc1ccc(CCNC(=O)Cn2nc(CC)n3c(cc4sc(CC)cc43)c2=O)cc1OCC	-0.6%	3.2
40	COc1ccccc1OCC(=O)N(Cc1cccs1)C1CCS(=O)(=O)C1 (stereo not drawn)	0.1%	-0.4
41	COc1ccc(-c2cn3nc(N4CCCC(C(=O)Nc5ccccc5F)C4)sc3n2)cc1 (stereo not drawn)	0.3%	0.9
42	CC1CCCCN1CCCNC(=O)c1[nH]c2ccccc2c1Sc1ccc(Cl)cc1 (stereo not drawn)	-1.5%	-0.1
43	Cc1c(-c2nnc(SCC(=O)Nc3ccccc3F)o2)nnn1-c1ccc(F)cc1	2.5%	3.1
44	CCC(Nc1ccc(-c2nc(-c3cccnc3)no2)cc1[N+](=O)[O-])c1ccccc1 (stereo not drawn)	2.3%	-0.7
45	CCCCN(CC)CCCNC(=O)C1CCCN(c2ncnc3c2nc2n3CCCCC2)C1 (stereo not drawn)	1.8%	-0.5
46	COc1ccc(-c2csc3ncnc(Nc4cccc(F)c4)c23)cc1	-1.4%	1.0
47	COc1ccc(/C=C/c2nc(C#N)c(NC3CCCCC3)o2)cc1OC	0.9%	2.1
48	Cc1cc(Nc2cccc(Cl)c2)nc2ccc(NC(=O)c3cccc(N(C)C)c3)cc12	1.9%	-0.6
49	CCOCCCNC(=O)NC(CCC(C)C)c1c(-n2cccc2)sc2c1CCN(C)C2 (stereo not drawn)	0.4%	1.7
50	Cc1ccc(C2CC(=O)N(Cc3ccccc3)c3c2c(C)nn3-c2nc(C)cc(C)n2)cc1 (stereo not drawn)	0.5%	-0.1
51	CC(C)COc1ccc(C(=O)Nc2scc(-c3ccc(Br)cc3)c2C(=O)OC(C)C)cc1	1.2%	1.4
52	COc1ccccc1CNC(=O)C1CCCN(c2nnc(-n3c(C)ccc3C)s2)C1 (stereo not drawn)	0.6%	-0.6
53	COc1ccc(CNc2nc(-c3ccc(Cl)cc3)nn2C(=O)c2ccccc2)cc1	0.3%	2.2
54	CCN(C(=O)c1nn(C)c2c1CSc1ccccc1-2)c1cccc(C)c1	1.7%	0.8
55	CCOC(=O)c1c(C)[nH]c(C)c1S(=O)(=O)N1CCCC(C(=O)N2CCN(c3cc(C)ccc3C)CC2)C1 (stereo not drawn)	-0.3%	-1.0
56	Cc1ccccc1Cn1c(Oc2ccccc2F)nc2c1c(=O)n(C)c(=O)n2C	2.3%	1.9
57	CN(C)c1ccc(/C=C/c2c3ccccc3cc[n+]2[O-])cc1	-0.3%	0.3
58	O=C(NC(=O)c1ccccc1)Nc1ccc(-n2nc(C(F)(F)F)cc2C(F)(F)F)cc1	-0.7%	-0.8
59	Cc1ccc(-c2nc(-c3cc4cc(Cl)ccc4oc3=O)sc2C)cc1	0.1%	-0.5
60	CC1CCc2c(sc(NC(=O)COc3ccccc3)c2C(=O)Nc2ccccc2Cl)C1 (stereo not drawn)	3.1%	0.5

# Single entries from above.
# TRPML1 ag, entry 60 → 0.5
# TRPML1 ag, entry 59 → -0.5
# PINK1 modulator, entry 57 → -0.3%
# PINK1 modulator, entry 55 → -0.3%

# From entry 37 to 40, as listed above:
no.	smiles	PINK1 modulator	TRPML1 ag
37	NC(=O)Cn1c(=O)n(CCCCCC(=O)NCc2ccccc2Cl)c(=O)c2sccc21	-0.7%	0.1
38	O=C(NCC(c1ccc(Cl)cc1)N1CCOCC1)c1ccccc1F (stereo not drawn)	1.5%	0.5
39	CCOc1ccc(CCNC(=O)Cn2nc(CC)n3c(cc4sc(CC)cc43)c2=O)cc1OCC	-0.6%	3.2
40	COc1ccccc1OCC(=O)N(Cc1cccs1)C1CCS(=O)(=O)C1 (stereo not drawn)	0.1%	-0.4

# (further entries)
no.	smiles	PINK1 modulator	TRPML1 ag
61	Oc1cccc(-c2nc(-c3cccs3)c(-c3cccs3)[nH]2)c1	0.4%	0.8
62	COc1ccc(OC)c(C2CC(=O)Nc3ccc4ccccc4c32)c1 (stereo not drawn)	5.1%	0.7
63	COc1ccccc1NC(=O)CSc1nc(-c2ccccc2F)nc2cc(=O)[nH]n12	-0.2%	0.5
64	CCc1ccc(CNC(=O)c2ccc(NC(=O)N3CCCCc4ccccc43)cc2)cc1	0.4%	-0.9
65	CCOCCc1nn2c(=O)cc(COC(=O)C3CCCCC3)nc2s1	-0.1%	1.1
66	CCSc1ncc(Cl)c(C(=O)Nc2ccc(S(=O)(=O)N3CCC(C)CC3)cc2)n1	0.2%	0.7
67	CCOc1ccccc1-n1cc2c(c1-c1ccc(OC)cc1)c(=O)n(C)c(=O)n2C	-0.3%	-0.7
68	Cc1ccccc1NC(=O)CSc1nc2ccc(NC(=O)c3ccccc3)cc2s1	2.0%	0.6
69	CN(Cc1ccccc1)C(=O)c1ccc2c(c1)N(Cc1ccc(Cl)cc1)C(=O)c1ccccc1S2=O (stereo not drawn)	0.2%	-0.1
70	Cc1ccc(NC(=O)Cn2c(-c3nonc3N)nc3ccccc32)cc1C	1.2%	0.9
71	CC(C)CNc1cc(NC2CCCCC2)c2c3c(onc13)-c1ccccc1C2=O	2.0%	0.7
72	COc1ccc(NC(=O)CN2C(=O)COc3ccc(S(=O)(=O)Nc4ccccc4)cc32)cc1	0.0%	0.4
73	CCOC(=O)c1ccc(N2C(=O)c3n[nH]c(-c4cccs4)c3C2c2ccc(C(C)(C)C)cc2)cc1 (stereo not drawn)	2.3%	0.1
74	COc1ccccc1CNC(=O)C(C)n1ccc2cc(S(=O)(=O)N3CCCC3)ccc21 (stereo not drawn)	-0.8%	-0.3
75	Cc1ccc2c(=O)cc(C(=O)Nc3c(C)n(C)n(-c4ccccc4)c3=O)oc2c1	2.1%	-0.7
76	O=C(Nc1ccc(F)cc1Cl)n1ncc2cc(Cl)ccc21	1.3%	-0.8
77	CCCS(=O)(=O)c1ncc(Cl)c(C(=O)Nc2sc3c(c2C(=O)NCC)CCCC3)n1	1.9%	-1.0
78	COc1ccc(Nc2nc3c(S(=O)(=O)c4ccc(Br)cc4)nnn3c3ccsc23)c(OC)c1	1.8%	-0.3
79	Cc1ccccc1OCCn1cc(C(=O)C2CCCCC2)c2ccccc21	-0.3%	0.4
80	CCOC(=O)N1CCc2c(sc3c2c(=O)n(-c2ccc(Cl)cc2)c(=O)n3Cc2cccc(OC)c2)C1	0.4%	1.4
81	Cc1nc2nncn2c(N2CCN(c3ccccc3)CC2)c1C	2.3%	0.3
82	CCOC(=O)c1ccccc1NC(=O)Cn1c(=O)n(Cc2nc(-c3ccccc3)no2)c(=O)c2ccccc21	1.1%	1.1
83	Cc1cccn2c(=O)c(C(=O)NCc3cccc(F)c3)cnc12	1.2%	2.9
84	Cc1ccc(-c2nc(SCCOc3ccccc3C)n3[nH]c(=O)cc3n2)cc1	5.7%	-0.2
85	CCCOC(=O)c1c(-c2ccccc2)c(-c2ccccc2)nn(C)c1=O	-0.7%	5.0
86	O=C(Nc1cc(NC(=O)c2ccccc2Cl)ccc1Cl)c1ccccc1	1.4%	-0.3
87	COCc1cc(C)nc2sc3c(c12)NC(c1ccc(O)cc1)N(c1ccc(C)cc1)C3=O (stereo not drawn)	2.5%	2.0
88	CCc1cccc(C)c1NC(=O)c1nc2ccccc2nc1N1CCCCC1	7.9%	2.2
89	Cc1nc(Nc2ccc(Cl)cc2)cc(-c2ccccc2)n1	4.9%	0.5
90	CCOC(=O)C1=C(CN2CCN(c3ccc(C)cc3C)CC2)NC(=O)NC1c1ccc(OC)cc1 (stereo not drawn)	26.0%	2.1
91	Cc1ccc(Cl)cc1N1CCN(C(=O)CN2C(=O)CSc3c2c(C)nn3-c2ccccc2)CC1	-0.6%	-0.5
92	CCc1ccccc1NC(=O)CSc1ncc(S(=O)(=O)c2ccc(C(C)C)cc2)c(N)n1	-0.1%	2.7
93	Cc1oc(-c2ccc(C(=O)NCCC(C)C)cc2)nc1CS(=O)(=O)c1ccccc1	4.5%	-1.0
94	COc1ccc(C2=CC(c3ccccc3Cl)n3nc(-c4ccc(Cl)cc4)nc3N2)cc1 (stereo not drawn)	3.5%	0.8
95	CC(=O)Nc1ccc(NC(=O)c2csnn2)cc1	-1.0%	-0.5
96	Cc1cccc2c(=O)cc(CSc3ccccc3NC(=O)c3cccc(Br)c3)[nH]c12	3.4%	2.4
